# From PubChem BioAssay
# Ecoli growth = E. coli growth inhibition; Escherichia coli growth, OD600, 23 h; active compounds read low; OD600 absorbance (no concentration beside the values); 0.21% of 330,000 active;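 active = OD600 absorbance below the run mean of sample wells minus 3.6 SD, in any replicate, cut at about 0.56 in these data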;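 also: stock transfer was 300 nL into about 60 µL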
# MLL AF4-AF9 inh = inhibitors of human MLL-AF4/AF9 interaction; P42568; AlphaScreen, biotin-AF4 peptide binding to FLAG-AF9; inhibition, % at 10 µM; 0.47% of 350,000 active; AID 651704;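 active = every replicate reaching a set inhibition limit, whatever the replicate mean, cut at about 25% in these data; inconclusive = mean inhibition reaches that limit but some replicates miss it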;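 also: 0% = plate neutral control median and 100% = total signal loss; the record names both 10 and 1 µM as test concentration; the first replicate is given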
# FGF22 binding = binders of recombinant human FGF22 by thermal shift; AID 651658; calls only at 9.99 µM; Q9HCT0; 1.5% of 340,000 active; SYPRO orange fluorescence; percent of sucrose octasulfate shift, DMSO zero;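 active = melting point raised past a set limit in the mean and every replicate; inconclusive = no clear call; three in four hits are not shown here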
# Target sequence (Q9HCT0 whole entry, looked up): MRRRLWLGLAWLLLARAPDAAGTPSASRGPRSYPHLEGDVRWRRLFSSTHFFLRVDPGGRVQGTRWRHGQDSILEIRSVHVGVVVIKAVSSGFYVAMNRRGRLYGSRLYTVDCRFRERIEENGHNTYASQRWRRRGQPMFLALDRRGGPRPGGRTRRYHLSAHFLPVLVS
# HNF4A DNA FP = change in binding of human HNF4 alpha to DNA | P41235 | HNF4a-FITC DNA binding, fluorescence polarization, 1 h | AID 1224865 | 0.3% of 360,000 active | activity change, % at 10 µM; in the data active = activity change above about 30%, passing the limit was not always enough;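 also: controls were the assay level and a saturating level of protein; the project sought stronger binding though the title names inhibitors; some compounds called inactive have numbers as strong as hits; positive values seem to mean higher polarization but the record does not say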
# Target sequence (P41235 whole entry, looked up): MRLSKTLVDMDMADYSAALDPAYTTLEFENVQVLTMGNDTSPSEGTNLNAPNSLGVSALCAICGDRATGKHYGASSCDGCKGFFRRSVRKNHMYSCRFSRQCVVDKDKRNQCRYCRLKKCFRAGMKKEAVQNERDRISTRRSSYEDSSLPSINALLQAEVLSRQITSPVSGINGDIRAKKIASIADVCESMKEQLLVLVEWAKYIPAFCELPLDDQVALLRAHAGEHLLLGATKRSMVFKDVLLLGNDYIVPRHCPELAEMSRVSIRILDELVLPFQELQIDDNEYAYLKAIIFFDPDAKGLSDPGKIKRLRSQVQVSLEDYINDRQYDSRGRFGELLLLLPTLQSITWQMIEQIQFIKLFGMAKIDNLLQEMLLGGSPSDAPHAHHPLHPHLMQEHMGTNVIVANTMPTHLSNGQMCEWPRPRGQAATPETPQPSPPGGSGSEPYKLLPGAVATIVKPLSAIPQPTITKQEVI
# Vif A3G = inhibitors of Vif binding to APOBEC3G peptide, primary screen, biochemical, TR-FRET, GST-Vif 1-94, biotin-A3G peptide, dose response retest (AID 1117319); TR-FRET GST-Vif / biotin-A3G peptide binding; higher % means a stronger effect; test concentration not given here; strong numbers were not always called active; one-dose inhibition, %; IC50 in µM for titrated hits; 0.57% of 260,000 active;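 active = above the screen mean plus three standard deviations and confirmed in dose response; inconclusive = results disagree or hit not tested in dose response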;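 also: Vif residues 1-94 fused to GST binding biotinylated APOBEC3G peptide 110-148; 0% = full assay without inhibitor and 100% = GST in place of GST-Vif; retest series ran down from 100 µM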
# RanGTP-Imp inh = disruptors of Ran-importin-beta complex formation – biochemical, FRET, CFP-Ran, YFP-importin-beta, homogeneous, primary screen; inhibition, % (concentration not given with the values); 1.1% of 300,000 active; cell-free CFP-Ran/YFP-importin-beta FRET ratio; AID 2216;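 active = most replicates above 15%; inconclusive = exactly half above 15%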;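 also: 0% = DMSO wells and 100% = Ran loaded with GDP instead of GTP; wells of about 40 µL received 100 nL stock; the first replicate is given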
# UCH37 inh = blocks the human deubiquitinase UCH37. Q9Y5K5. purified proteasome/UCH37, Ub-AMC cleavage fluorescence. inhibition, % (concentration not given with the values). 0.33% of 330,000 active. AID 588478;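 active = mean of two replicates above 20%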;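 also: 0% = compound-free wells with enzyme and 100% = wells lacking proteasome; stock transfer was 100 nL into about 20 µL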
# Target sequence (Q9Y5K5 whole entry, looked up): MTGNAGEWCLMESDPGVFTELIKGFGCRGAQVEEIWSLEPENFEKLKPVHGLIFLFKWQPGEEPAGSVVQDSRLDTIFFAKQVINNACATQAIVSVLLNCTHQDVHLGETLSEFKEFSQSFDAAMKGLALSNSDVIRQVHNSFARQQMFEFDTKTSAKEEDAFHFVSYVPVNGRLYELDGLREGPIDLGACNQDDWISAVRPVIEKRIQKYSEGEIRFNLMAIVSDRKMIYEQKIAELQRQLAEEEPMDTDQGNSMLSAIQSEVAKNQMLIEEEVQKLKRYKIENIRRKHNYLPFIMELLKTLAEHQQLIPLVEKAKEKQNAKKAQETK
#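 Material: Human UCH37 enzyme supplied as purified proteasome complex | Schedule: 30 min compound-proteasome preincubation then 25 min substrate reaction, room temperature | Detection: AMC fluorescence from Ub-AMC cleavage, excitation 355 nm, emission 460 nm | Benchmarks: Wells without proteasome as full block, compound-free enzyme plus substrate as uninhibited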
# The depositor's hits bear a star; i = inactive; u = inconclusive; x = not tested or not shown; & = joins results of further samples. Only part of the results is shown; the hit share may differ from the screen's.
# Values in the order: UCH37 inh, HNF4A DNA FP, Ecoli growth, Vif A3G, FGF22 binding, MLL AF4-AF9 inh, RanGTP-Imp inh
CCOc1ccc(N2C(=O)CS/C2=C(\C(Cl)=C(Cl)Cl)[N+](=O)[O-])cc1
    8.4, 35.3*, 0.659, 30.5%, x, x, -0.7
COc1ccc(C23NCCN2C(=O)c2ccccc23)cc1 (stereo unspecified)
    2.0, -3.2, 0.639, x, i, 0.0, -0.3
O=C(N1CCOCC1)n1nnc2ccccc21
    1.4, 0.9, 0.662, -9.6%, x, x, 2.9
CCO[C@H]1OC(C(=O)NC2CC2)=C[C@@H](c2c[nH]c3ccccc23)[C@@H]1CCCO
    5.0, -1.4, x, 27.4%, i, -4.6, -3.4
C=CCn1c(SCC(=O)N2CCN(C(=O)OCC)CC2)nc2c([nH]c3ccccc32)c1=O
    x, 2.2, x, 0.3%, i, -4.9, x
CC(C)(C)C(=O)Nc1cc(S(=O)(=O)Nc2ccc(Cl)cc2)ccc1O
    6.0, -3.2, 0.648, -5.2%, x, -0.2, 4.6
O=[N+]([O-])c1cccc(Cl)c1NCCNS(=O)(=O)c1ccccc1
    5.7, 0.5, 0.72, 1.6%, x, x, -1.3
C=C(C)C(O)CC/C(C)=C/Cc1c(O)ccc(C(=O)/C=C/c2ccc(O)cc2)c1O (stereo unspecified)
    7.2, 4.0, 0.72, x, i, 4.8, x
COc1cc(CNC2CCCC2)cc(Cl)c1OCc1ccccc1Cl
    2.5, -1.1, 0.59, -3.8%, i, u, 5.0
COc1cc(OC)nc(-n2ncc(Br)c(Br)c2=O)n1
    7.9, -1.0, 0.677, -12.3%, i, -3.0, x
CC(C)(C)NC(=O)COc1ccc(CNn2nnnc2N)cc1
    0.8, 0.0, 0.7, 15.1%, x, x, -1.4
CCN1CCN(CCCOc2ccccc2-c2ccccc2)CC1
    4.3, -0.3, 0.719, 7.9%, i, 2.6, 2.6
NS(=O)(=O)c1ccc(N/N=C2/CCCCC2C2CCCCC2)c([N+](=O)[O-])c1 (stereo unspecified)
    x, -3.2, x, -3.0%, i, 30.0*, 2.6
Cc1sc(NC(=O)c2ccc(Cl)s2)c(C(N)=O)c1C
    -12.4, 3.6, 0.704, 9.1%, x, x, 0.9
Cc1ccc(OCC(=O)Nc2ccc(C)c(S(=O)(=O)N3CCCCC3)c2)c([N+](=O)[O-])n1
    0.3, 2.0, x, 8.1%, x, x, 3.6
Nc1ccccc1SC(CC(=O)c1ccccc1)c1cccc([N+](=O)[O-])c1 (stereo unspecified)
    x, 2.4, x, -3.4%, i, 2.7, x
C=CCN(C(=O)Cc1cccs1)c1nc(-c2ccc(S(C)(=O)=O)cc2)cs1
    -4.0, 0.4, 0.657, -2.1%, i, -0.2, 4.4
COCCN(CCOC)Cc1cc(=O)oc2cc(OC)c(Cl)cc12
    x, 6.0, x, x, i, -1.6, x
CCOC(=O)CN1C(=O)S/C(=C/c2ccc(N3CCCCC3)o2)C1=O
    2.1, 159.9, 0.721, u, x, x, u
Cn1c(N)c(C(=O)CSc2n[nH]c(-c3ccccc3)n2)c(=O)n(C)c1=O
    2.2, 2.8, 0.654, -0.3%, i, -2.3, x
CCO[C@@H]1OC(C(=O)O)=C[C@H](c2ccccc2)[C@H]1CCCO
    0.3, -2.3, x, x, i, -8.7, -1.3
CN(Cc1cnccn1)Cc1nc(Cc2cccc(F)c2)no1
    -0.2, 0.6, 0.693, -5.2%, i, 0.6, -0.3
Cc1sc(NC(=O)C2CCCCC2C(=O)O)c(C(N)=O)c1C (stereo unspecified)
    4.4, -3.2, 0.632, 4.0%, x, x, 2.7
COC(=O)c1cn(NC(=O)Cc2ccc(Cl)c(Cl)c2)c(=O)c2ccccc12
    -42.5, 5.8, 0.67, 20.6%, x, x, 5.3
CC(C)OC(=O)CCc1nc2ccccc2[nH]c1=O
    -40.2, -0.8, 0.713, -1.8%, x, x, 2.2
COc1ccc(N2C(=O)C3CCCCC3C2=O)cc1NC(=O)c1ccccc1 (stereo unspecified)
    2.4, 0.5, 0.681, 1.8%, i, -2.1, 0.8
COc1ccc(CNc2nc(-c3ccccc3)nn2C(=O)c2ccc([N+](=O)[O-])cc2)cc1
    5.8, -4.4, 0.705, x, x, x, -0.6
COc1ccccc1CC(=O)NC1CCCc2ccccc21 (stereo unspecified)
    5.6, 1.6, 0.694, -3.4%, i, 0.8, -1.6
O=c1ccc(-c2ccccc2)nn1Cc1ccccc1
    x, 0.6, x, -2.4%, i, -1.2, 4.9
CC(C)Cc1nnc(N)s1
    1.6, 0.9, 0.679, 2.1%, i, 0.4, x
Cc1cccc(CS(=O)(=O)c2ncc(Cl)c(C(=O)Nc3ccc(F)cc3)n2)c1
    x, 0.1, x, x, i, -0.2, 0.3
CCCc1cc(C(N)=O)c(NC(=O)c2ccoc2C)s1
    -5.5, 2.1, 0.655, 2.9%, i, -2.2, 2.9
CC(C)NC(=O)C1CCN(C2CCN(CC3CC=CCC3)CC2)CC1 (stereo unspecified)
    1.3, -1.2, 0.739, 25.7%, x, -7.6, 4.8
CCn1c(=O)cc(OCC(=O)NCc2ccc(C)o2)c2ccccc21
    1.3, -0.6, 0.701, 2.6%, x, x, 6.3
CCOC(=O)c1c(-c2ccccc2)oc2ccc(OCC(O)CNCCN(C)C)cc12 (stereo unspecified)
    -334.6, 1.1, 0.596, x, i, 33.8*, -1.0
CCC1(NC(C)=O)CC2CC1CC2NC(C)=O (stereo unspecified)
    -1.2, -4.2, 0.64, -4.5%, x, x, -0.5
S=P(c1ccc(N2CCOCC2)cc1N1CCOCC1)(N1CCOCC1)N1CCOCC1
    0.3, -2.8, 0.71, -6.2%, x, x, x
CN(C)/C=C(\C#N)c1nc2ccccc2[nH]1
    9.1, 1.6, 0.648, 1.6%, x, x, 7.3
CCn1c(C)nnc1SCC(=O)Nc1ccc(N2CCOCC2)cc1
    -0.3, 1.7, 0.697, x, i, -0.4, 3.2
CC(C)N1CCC(N2CCN(Cc3cc4c(cc3Cl)OCO4)CC2CCO)CC1 (stereo unspecified)
    1.4, 0.0, 0.689, x, i, 1.0, 2.7
CC(=O)NC1CC2CCCC(C1)N2CC(=O)NCc1ccc(F)cc1 (stereo unspecified)
    0.2, -0.4, 0.723, -0.6%, x, x, 0.9
NC(=O)NC(Cc1ccccc1)C(=O)NCCCSc1ccccc1 (stereo unspecified)
    -1.3, -4.0, 0.659, -5.2%, i, 1.0, 0.4
CCCCNC(=O)CN(C1CCCCC1)S(C)(=O)=O
    -1.4, -3.5, 0.698, -0.4%, x, x, x
O=C(CCNC(=O)c1ccc(Br)cc1)NCc1ccccn1
    3.5, -0.6, 0.706, 1.9%, i, -1.1, 1.9
Cc1nnc(SCc2nc3scc(-c4ccccc4)c3c(=O)[nH]2)s1
    2.1, 17.3, 0.72, -5.3%, i, 5.0, -2.3
CN1CCN(/C=N/c2c(C#N)cnn2Cc2ccccc2)CC1
    x, -2.3, x, -5.4%, x, x, -1.4
O=C(CSc1nnc(-c2ccncc2)n1-c1ccc(Cl)cc1)N1CCOCC1
    1.3, -0.9, 0.679, -9.2%, x, x, 2.0
Cc1ccc(S(=O)(=O)N(CC#N)CC#N)cc1
    0.7, -8.9, 0.665, -8.6%, i, -2.6, 4.6
Oc1oc(-c2ccccc2Br)nc1/C=N/c1ccccn1
    x, -1.2, x, -6.5%, i, 2.8, u
O=C(CN1CCc2ccccc21)NC(=O)NCc1ccco1
    6.0, -0.3, 0.726, 18.8%, x, x, 0.0

# Carrying on.
# Values in the order: UCH37 inh, HNF4A DNA FP, Ecoli growth, Vif A3G, FGF22 binding, MLL AF4-AF9 inh, RanGTP-Imp inh
COc1ccc(NC(=O)CSc2nc(O)cc(=O)n2-c2ccccc2)cc1
    0.9, 6.7, 0.681, x, i, -0.4, -2.2
O=C(NC1CCCCCC1)c1c2c(nc3ccccc13)CCN(Cc1ccccc1)C2
    0.0, 2.2, 0.668, 7.5%, x, x, 3.7
CS(=O)(=O)Nc1ccc(S(=O)(=O)Nc2nccs2)cc1
    5.0, 0.1, 0.694, 1.3%, x, x, 2.0
COc1ccc(C(=O)COC(=O)c2cccnc2Cl)c(OC)c1
    -1.0, 0.4, 0.653, u, x, -0.3, -0.7
COc1ccc(-c2c(-c3cc(OC)c(OC)c(OC)c3)noc2C)cn1
    2.2, -2.5, x, x, x, x, 0.0
CC(C)c1ccc(NC(=O)COC(=O)c2c[nH]c(=O)[nH]c2=O)cc1
    x, 0.8, x, x, i, -1.5, -1.3
COC(=O)c1nn(-c2ccccc2)c(Sc2ccc(OC)cc2)c1/C=N/O
    x, -2.3, x, u, x, x, 4.5
Cc1cc(O)c(C=Nc2ccc(Cl)cn2)c(=O)o1
    5.1, 0.2, 0.76, u, x, x, -3.0
Cc1cccc(NC(=O)CSc2nnc(CCC(=O)Nc3ccc(C)c(Cl)c3)n2C)c1
    1.6, -0.4, 0.693, 48.5%, x, x, 3.8
O=C(CN(c1ccccc1)S(=O)(=O)c1ccccc1)N1CCN(Cc2ccc3c(c2)OCO3)CC1
    0.6, -1.3, 0.704, 6.7%&0.1%, x, x, -2.0
COCCCNC(=O)CS(=O)Cc1nc(-c2ccccc2C)oc1C (stereo unspecified)
    -3.2, -1.1, 0.656, -3.2%, i, 1.3, -1.7
COc1ccccc1CNC(=O)CCNC(=O)N1CC(=O)Nc2ccccc21
    -0.6, -1.9, 0.684, x, i, -1.9, 1.8
CC(Oc1ccccc1F)c1nnc(SCC(=O)Nc2ccc(N3CCOCC3)cc2)o1 (stereo unspecified)
    2.9, -1.7, 0.713, x, i, -18.0, x
CCN(CC)CCOC(=O)c1ccc(N/C=C(/C#N)c2nc(-c3cccc(OC)c3)cs2)cc1
    2.6, 5.3, 0.661, -65.2%, i, -0.6, 3.7
Cc1cc(NC(=O)C2CCCCC2)ccc1NC(=O)c1ccccc1Cl
    0.9, 0.9, 0.729, -4.2%, i, -7.2, 1.9
O=C(Nc1cccc(Cl)c1)N1CCN(c2ncccn2)CC1
    1.2, 3.6, 0.684, 0.0%, x, x, 2.5
Cc1ccc(S(=O)(=O)NC(Cc2ccccc2)C(=O)O)cc1 (stereo unspecified)
    0.6, 0.5, 0.647, 10.4%, i, -1.8, -3.9
CCCOc1ccc(CC(=O)NCC2(c3ccccc3)CCOCC2)cc1OC
    1.5, 0.6, 0.666, 0.3%, x, x, -1.0
COc1cccc(C(C(=O)NC(C)(C)C)N(Cc2ccc(C)cc2)C(=O)CCC(=O)Nc2cc(C)on2)c1OC (stereo unspecified)
    0.1, 0.6, 0.653, x, i, 2.1, -2.4
NC(=S)c1cc2ccc(O)cc2oc1=O
    x, 33.6, x, -95.1%, x, x, 146.8*
O=C1OC(c2ccccc2)(c2cc(Br)ccc2O)c2ccccc21 (stereo unspecified)
    7.0, -0.8, 0.7, -9.5%, i, 0.4, x
CC(=O)Nc1cc2ccccc2oc1=O
    -8.6, -0.3, 0.665, -0.5%, i, 0.6, 2.0
CCO[C@H]1OC(C(N)=O)=C[C@@H](C2CCCCC2)[C@@H]1CCCO
    1.1, 0.3, x, -15.2%, i, -18.5&0.1, -2.6
CC(C)n1ncc2c(C(=O)Nc3ccccc3SCC(N)=O)cc(C3CC3)nc21
    x, 3.8, x, x, i, 4.3, x
Cc1[nH]c(=S)c(C#N)c(C)c1Cc1ccc(Cl)cc1Cl
    5.3, 0.7, 0.638, -8.2%, x, -2.9, 1.2
CCOC(=O)c1cc(N)cc([N+](=O)[O-])c1
    -0.1, 0.1, 0.693, x, i, -3.0, -5.3
CCOC(=O)CSCC(=O)N1N=C(c2cccs2)CC1c1ccc(F)cc1 (stereo unspecified)
    -24.4, 2.2, 0.713, x, i, 4.6, -2.7
